# VDR inhibitor = Inhibitors of the vitamin D receptor (VDR): qHTS; Vitamin D3 receptor (Homo sapiens), P11473; 0.93% of 400,000 active; Potency, µM, for inactives: max response, negative = inhibition, hits mostly inhibitors; VDR-SRC2-3 peptide fluorescence polarization, 2 h; AID 504847, 2011; active means well fitted inhibition curve with a large enough effect; inconclusive means small, poorly fitted or top-dose-only effect, or another doubt; inactive means no such curve, though single readings can be large or run the other way; further: series mostly up to about 120 µM
# Target sequence (P11473 whole entry, looked up): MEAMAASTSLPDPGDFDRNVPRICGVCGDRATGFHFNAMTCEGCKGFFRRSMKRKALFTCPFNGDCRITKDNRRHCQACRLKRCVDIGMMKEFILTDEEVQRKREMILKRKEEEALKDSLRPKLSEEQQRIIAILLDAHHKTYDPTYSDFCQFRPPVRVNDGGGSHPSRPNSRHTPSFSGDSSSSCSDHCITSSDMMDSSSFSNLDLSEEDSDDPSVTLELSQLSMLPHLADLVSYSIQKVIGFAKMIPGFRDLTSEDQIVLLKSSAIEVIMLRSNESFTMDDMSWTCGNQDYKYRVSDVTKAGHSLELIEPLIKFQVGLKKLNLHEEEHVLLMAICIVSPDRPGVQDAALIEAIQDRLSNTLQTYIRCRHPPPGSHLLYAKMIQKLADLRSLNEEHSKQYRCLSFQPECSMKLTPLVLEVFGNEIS
#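 Two reagent solutions held at 4 deg C in the dark were dispensed, compounds pinned at 23 nl, and the mixture incubated 2 h at room temperature. Read-out: fluorescence polarization of VDR–SRC2-3 peptide binding.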
# Numbers without * were called inactive; ? = inconclusive; & = joins results of further samples. On the % scale 0 is the no-effect control and ±100 the full control effect; potency means the concentration at half of the fitted maximal effect. Not all compounds are listed; the hit share may differ from the screen's.
SMILES,VDR inhibitor
CCOC(=O)c1cc2ccc(OC)c(OC)c2c(=O)s1,5%
O=C(O)c1ccc2nc(-c3ccco3)c(-c3ccco3)nc2c1,?
CSc1ccc(C(=O)C2CCCN(S(=O)(=O)c3c(C)noc3C)C2)cc1 (stereo not drawn),2%
CC(C)c1nc(N(C)S(C)(=O)=O)nc(-c2ccc(F)cc2)c1/C=C/C(O)CC(O)CC(=O)O (stereo not drawn),?
COc1ccc(S(=O)(=O)N(C)CC(=O)NC2CC2)cc1OC,9%
O=C1N=C(N2CCCCC2)S/C1=C\c1ccncc1,-10%
CCO[C@@H]1OC(C(=O)NC2CC2)=C[C@H](c2ccc(C(F)(F)F)cc2)[C@H]1CCCO,-3%
Cc1ccccc1-n1c(=O)c2ccccc2n(CC(=O)NCc2ccco2)c1=O,0%
O=C(CN1C(=O)NC2(CCCC2)C1=O)OCc1c(F)cccc1Cl,-3%
CCSc1cc(C)nc2c(-c3ccccc3)c(C)nn12,-7%
O=C(Nc1cc(Cl)ccc1N1CCOCC1)c1ccc(N2CCCCC2)c([N+](=O)[O-])c1,23%
C=CCNc1sc(C(=O)c2ccccc2)c(N)c1-c1nc2ccccc2s1,-14%
CCOC(=O)CC(=O)CSc1nc2c(sc(=S)n2-c2ccccc2)c(=O)[nH]1,-16%
O=C(NCc1cccs1)Nc1ccc2c(c1)OCO2,-2%
Brc1cccc(-c2nnn3c2nc(NCc2ccc4c(c2)OCO4)c2ccccc23)c1,3%
COc1cccc2cc(C(C)N(CCCN3CCOCC3)C(=S)Nc3c(C)cccc3C)oc12 (stereo not drawn),5%
CCOC(=O)C1=C(C)NC(=O)NC1c1ccc(N(CC)CC)cc1 (stereo not drawn),-3%
Cc1nc2nc3c(cn2n1)C(=O)CCC3,-2%
CCOc1ccc(-c2nn(-c3ccc(F)cc3)c3c2cnc2ccc(F)cc23)cc1,-6%
COc1cnc(-c2ccccn2)nc1Sc1ccc(F)cc1,7%
COc1ccc(C2SCCN2C(=S)Nc2ccc(F)cc2)cc1 (stereo not drawn),?
CC1(C)CC(NS(=O)(=O)c2ccc(S(=O)(=O)N3CCOCC3)cc2)CCO1 (stereo not drawn),3%
CCOC(=O)C1=C(c2ccccc2)c2ccccc2N(S(=O)(=O)C(F)(F)F)C1C(=O)OCC (stereo not drawn),6%
COCCN(CCOC)S(=O)(=O)c1ccc(C(=O)Nc2c(C)n(C)n(-c3ccccc3)c2=O)cc1,-9%
COc1ccccc1N(C)S(=O)(=O)c1ccc(C(=O)NC(C)c2ccccc2)cc1 (stereo not drawn),12%
CN(CC(=O)Nc1cccc(F)c1)C(=O)C1CSC2(C)CCC(=O)N12 (stereo not drawn),-14%
COc1cc2c(cc1NC(=O)COC(=O)CNC(=O)c1ccccc1)oc1ccccc12,-8%
O=C(NNC(=O)C1[C@H]2CCCC[C@@H]12)Nc1cccc2ccccc12 (stereo partly drawn),6%
COC(=O)c1ccc(N2CN=C(c3ccc(C)cc3)NC2=S)cc1,23%
Clc1ccc(CNCc2cccs2)c(Cl)c1,6%

# 3 entries out of the list above, arranged by their value in VDR inhibitor, descending:
SMILES,VDR inhibitor
O=C(NCc1cccs1)Nc1ccc2c(c1)OCO2,-2%
O=C(CN1C(=O)NC2(CCCC2)C1=O)OCc1c(F)cccc1Cl,-3%
CCOC(=O)CC(=O)CSc1nc2c(sc(=S)n2-c2ccccc2)c(=O)[nH]1,-16%

# Sorted by molecular weight (lowest first): 17 of the compounds above
SMILES,VDR inhibitor
Cc1nc2nc3c(cn2n1)C(=O)CCC3,-2%
Clc1ccc(CNCc2cccs2)c(Cl)c1,6%
O=C1N=C(N2CCCCC2)S/C1=C\c1ccncc1,-10%
O=C(NCc1cccs1)Nc1ccc2c(c1)OCO2,-2%
CCSc1cc(C)nc2c(-c3ccccc3)c(C)nn12,-7%
O=C(NNC(=O)C1[C@H]2CCCC[C@@H]12)Nc1cccc2ccccc12 (stereo partly drawn),6%
COC(=O)c1ccc(N2CN=C(c3ccc(C)cc3)NC2=S)cc1,23%
O=C(CN1C(=O)NC2(CCCC2)C1=O)OCc1c(F)cccc1Cl,-3%
CN(CC(=O)Nc1cccc(F)c1)C(=O)C1CSC2(C)CCC(=O)N12 (stereo not drawn),-14%
CSc1ccc(C(=O)C2CCCN(S(=O)(=O)c3c(C)noc3C)C2)cc1 (stereo not drawn),2%
CCOc1ccc(-c2nn(-c3ccc(F)cc3)c3c2cnc2ccc(F)cc23)cc1,-6%
CC1(C)CC(NS(=O)(=O)c2ccc(S(=O)(=O)N3CCOCC3)cc2)CCO1 (stereo not drawn),3%
COc1ccccc1N(C)S(=O)(=O)c1ccc(C(=O)NC(C)c2ccccc2)cc1 (stereo not drawn),12%
O=C(Nc1cc(Cl)ccc1N1CCOCC1)c1ccc(N2CCCCC2)c([N+](=O)[O-])c1,23%
Brc1cccc(-c2nnn3c2nc(NCc2ccc4c(c2)OCO4)c2ccccc23)c1,3%
CC(C)c1nc(N(C)S(C)(=O)=O)nc(-c2ccc(F)cc2)c1/C=C/C(O)CC(O)CC(=O)O (stereo not drawn),?
COCCN(CCOC)S(=O)(=O)c1ccc(C(=O)Nc2c(C)n(C)n(-c3ccccc3)c2=O)cc1,-9%

# New compounds follow:
SMILES,VDR inhibitor
COc1ccc(-c2cc(C(=O)N/N=C(\C)c3ccco3)c3ccccc3n2)c(OC)c1,-24%
Cc1ccc(-n2c(SCC(=O)c3c(N)n(C4CC4)c(=O)[nH]c3=O)nnc2N2CCOCC2)cc1,-3%
Cc1nn(C)cc1/C=C/C(=O)c1ccc(O)cc1,-24%
Cc1ccc(CSc2nnc(CCCCCNC(=O)OC(C)(C)C)o2)cc1,2%
CCC1(COC(NC(=O)c2cccnc2)(C(F)(F)F)C(F)(F)F)COC1,6%
Cc1ccc(/C=C/C(=O)OCC(=O)Nc2ccc3[nH]c(=O)[nH]c3c2)o1,-4%
O=C(CCCc1ccccn1)c1ccccc1,9%
COc1ccc(-c2cc3ccc(F)cc3cn2)cc1,3%
COCCNC(=O)CN1C(=O)NC2(CCCc3cc(OC)ccc32)C1=O (stereo not drawn),1%
CN(C(=O)COC(=O)c1n[nH]c2ccccc12)c1ccccc1,3%
CNC(=O)c1c(NC(=O)C(C)C)sc2c1CCC2,-15%
CCC/C=C1/CCCOC(C(=O)NCc2ccc(S(C)(=O)=O)cc2)(C(F)(F)F)C1 (stereo not drawn),-4%&0%
O=C(OCn1nnc2ccccc2c1=O)c1ccco1,-6%
CC(C)Cn1c(-c2ccccc2Cl)nc2ccccc21,7%
CC(C)COc1ccccc1C(=O)NC(CO)C(=O)O (stereo not drawn),-1%
S=C(NCc1ccc(Cl)cc1)Nc1ccccc1Cl,-8%
COC(=O)COc1cc2ccccc2cc1C(=O)Nc1ccccc1,-4%
c1ccc(OCc2nn3c(-c4cccnc4)nnc3s2)cc1,-7%
CCOC(=O)c1cc2c(=O)n3ccccc3nc2n(Cc2ccco2)c1=NC(=O)c1cccc(F)c1,-2%
COc1ccc(CCNC(=O)CCCn2c(=O)c3ccccc3n(Cc3c(C)cc(C)cc3C)c2=O)cc1OC,4%
CCOC(=O)[C@H]1[C@H]2COc3ccc(OC)cc3[C@@H]2N2C(=O)c3ccc(F)cc3NC(=O)[C@@]12C,-28%
CC1(C)Cc2c(cnn2-c2ccc(F)cc2)C(NC(=O)Cn2cncn2)C1 (stereo not drawn),-6%
CC(=O)Nc1ccc(Nc2ccc(S(=O)(=O)C(F)(F)F)cc2[N+](=O)[O-])cc1,3%
O=C(Cn1nnc(-c2cccs2)n1)N1c2ccccc2Sc2ccc(C(F)(F)F)cc21,-10%
COc1c(O)ccc(/C=N/NC(=O)c2ccc3c(c2)OCCO3)c1[N+](=O)[O-],-4%
Cc1ccc2c(c1)S/C(=C/c1ccc[n+](CCO)c1)N2C,-5%
C[C@H](NC(=O)c1nc[nH]c1C(=O)N[C@@H](Cc1ccccc1)C(=O)OCc1ccccc1)C(=O)OCc1ccccc1,-9%
Cc1ccc(NC(=O)C(C)c2ccc(-c3ccccc3)c(F)c2)c(C)c1 (stereo not drawn),-4%
CCNC(=S)N/N=C/c1ccc(C#N)cc1,-14%
O=C(NCc1ccc2c(c1)OCO2)Oc1ccccc1,-7%
C=CCc1c(C)nc2nc(SCC(=O)Nc3ccc(C)c(C)c3)nn2c1C,10%
Cc1ccc(C2(C)NC(=O)N(CC(=O)NC(=O)NC(C)C)C2=O)cc1 (stereo not drawn),-5%
CS(=O)(=O)c1ccc(Cl)c(NC(=O)CN2CCN(S(=O)(=O)/C=C/c3ccccc3)CC2)c1,-2%
O=C(C1CCCN(S(=O)(=O)c2cccc3cccnc23)C1)N1CCN(c2ccccc2F)CC1 (stereo not drawn),-5%
CN1CCN(S(=O)(=O)c2ccc(NC(=O)c3ccc(Br)o3)cc2)CC1,3%
COC(=O)c1ccc(Oc2nc(NC(C)C)nc(N(C)C)n2)cc1,7%
COc1ccc(C(=O)N(CCN2CCOCC2)CC(=O)NC2CCCC2)cc1OC,-3%
COc1ccc(-c2ccc(-c3noc(-c4cc(OC)cc(OC)c4)n3)c(OC)n2)cc1,-7%
CCc1ccc(OCC(=O)Nc2ccc3oc(=O)ccc3c2)cc1,-13%
CCOC(=O)c1c(C)[nH]c(C)c1S(=O)(=O)N(C)CC(=O)Nc1ccc(C)cc1C,13%
Cc1ccc(N(C)C(CNS(=O)(=O)c2ccccc2)c2ccccc2)cc1 (stereo not drawn),7%
CCc1ccc(C(CNc2nc(C(F)(F)F)nc3ccccc23)N(C)C)cc1 (stereo not drawn),-8%
O=C1Nc2ccccc2C1C(C[N+](=O)[O-])c1ccccc1 (stereo not drawn),-12%
Cc1cc(OC(=O)C2CC2)c([N+](=O)[O-])c(=O)[nH]1,-4%
COc1ccc(CN2CCCC(C(=O)N3CCCCC3)C2)cc1 (stereo not drawn),-13%
COc1cc(SC)ccc1C(=O)Nc1cccc(C2OCCCO2)c1,-21%
CNC(=O)CNC(=O)Nc1ccc(C)cc1,3%
Cc1cc(=O)[nH]c(N2CCN(c3ccc(Cl)cc3)CC2)n1,4%
CCSc1ccc([C@@H]2[C@H]3C(=O)N(C)C(=O)[C@H]3[C@]3(C(=O)OC)CCCCN23)cc1,?
COc1cc(OC)cc(-c2cc3nc4c(c(N5CCN(c6ncccn6)CC5)n3n2)CCCC4)c1,23%
NNC(=O)CS(=O)(=O)CS(=O)(=O)CC(=O)NN,-1%
CCn1cc(C(=O)NC(=S)Nc2ccccc2[N+](=O)[O-])cn1,-19%
O=C(NNC(=S)Nc1ccc(Cl)cc1)c1cccs1,-1%
COc1cccc(/C=C(\CC(=O)O)c2nc3ccccc3s2)c1,-16%
Cc1cc(C)c2c(NC(=O)CCl)nn(C)c2n1,-5%
CC1CCN(c2nc3c(S(=O)(=O)c4ccccc4)nnn3c3ccsc23)CC1,-4%
COc1ccc(/C=C/C(=O)NCC(=O)N/N=C(\C)Cc2ccccc2)cc1,14%
CN(C)c1ccc(CCc2ccc(N)cc2)cc1,-2%
O=C(/C=C/c1ccccc1)Nc1sc2c(c1C(=O)O)CCC2,-9%
Cc1cc(C)c(S(=O)(=O)NCCC2CCCN2C)c(C)c1 (stereo not drawn),7%
# The listing continues.
SMILES,VDR inhibitor
O=C(c1ccc(F)cc1)N(c1ccccn1)C1CCCCC1,8%
CC(C)=CC(=O)OCC(=O)Nc1cc(C)cc(C)c1,-2%
Cc1ccc(C2N3CC4(C)CN2CC(c2ccccc2)(C3)C4=O)cc1 (stereo not drawn),7%
Cc1cccc(C)c1NC(=O)CSc1nnc(C)n1CC1CCCO1 (stereo not drawn),-6%
O=C(Cc1ccc(F)cc1)N[C@@H]1c2ccccc2CC[C@@H]1OCc1ccccc1,7%
CC(C)C(NS(=O)(=O)c1ccccc1)C(=O)NC1CCCC1 (stereo not drawn),27%
Cc1ccccc1NC(=O)Cn1c(SCC(=O)Nc2ccc(F)cc2)nc2ccccc21,6%
CCN(CC)S(=O)(=O)c1ccc(OC)c(NC(=O)C(C)Oc2ccc3c(C)cc(=O)oc3c2)c1 (stereo not drawn),-8%
Cc1cc(C)nc(N2N=C(CSc3ccc(Cl)cc3)CC2=O)n1,-3%
CCOc1ccc(CNC(=O)c2cc3c(=O)oc4ccc(C)cc4c3s2)cc1,-5%
CCn1c(=O)cc(OCC(=O)N2CCN(c3ccc(C)cc3)C(C)C2)c2ccccc21 (stereo not drawn),-18%
CN1C(=O)C2(OCCCO2)c2cc(Cl)ccc21,?
Cc1ccc(NC(=O)COC(=O)Cn2nc(C)c([N+](=O)[O-])c2C)c([N+](=O)[O-])c1,9%
Cc1ccc(-c2nn(-c3ccccc3)cc2/C=C/C(=O)Nc2nccs2)cc1,-2%
CCC(C)c1ccc(Nc2ncccc2C#N)cc1 (stereo not drawn),-6%
C/C(=N\Nc1nnc(-c2ccccc2)c(-c2ccccc2)n1)c1cccc([N+](=O)[O-])c1,-6%
NC(=S)N/N=C1\CC(c2ccc3c(c2)OCCO3)Oc2ccc(F)cc21 (stereo not drawn),1%
COC(=O)CSc1ncc(OC)c(OC)n1,3%
Cc1ccccc1NC(=O)COC(=O)CCC(=O)c1cccs1,11%
CN(C)c1cc[n+](CC(=O)c2cccs2)cc1,1%
O=[N+]([O-])c1cc([N+](=O)[O-])c(Oc2ccc(Br)cc2Br)cc1NN1CCCCC1,-13%
Cc1ccc(C(=O)OCC(=O)N2CCNC2=O)c(C)c1,6%
CCOC(=O)c1sc2cccc(F)c2c1S(=O)(=O)Nc1ccccc1F,6%
COc1cc2ncc3c(-c4ccccc4)nn(-c4ccc(C)cc4)c3c2cc1OC,-3%
Cc1csc(NC(=O)CSc2sc3c(O)cc(=O)[nH]c3c2C#N)n1,19%
COc1cccc(N2CCN(C(=O)C3CCC(=O)N(C4CCCCCC4)C3)CC2)c1 (stereo not drawn),-5%
CCc1ccccc1NC(=O)Cn1nnc(C(=O)NCc2ccco2)c1N,-5%
Cc1cccc(C)c1NC(=O)CSc1nnnn1-c1ccc(C(=O)O)cc1,9%
